TRPV1 potentiator = enhances activation of the human vanilloid receptor TRPV1. potentiation, % at 8.33 µM. TRPV1-expressing cells, Fluo-8 calcium influx, capsaicin EC20 potentiation; host cell line not named in the record; control for the full effect not named in the record. Q8NER1. 320,000 compounds, 0.02% hits; active means potentiation above 80%; inconclusive means 30% to 80%; inactive means below 30%; also: 0% is about no effect
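Cells expressing TRPV1 were dye-loaded with Fluo-8 and read kinetically: 10 s baseline, 3 min after compound (agonist portion), then 2 min after EC20 capsaicin (allosteric enhancer portion). Calcium-bound dye fluorescence at 480/520 nm.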
D2 potentiator = positive allosteric modulators of human D2 dopamine receptor | AID 624464 | potentiation, % (concentration not given with the values) | P14416 | DiscoveRx D2 beta-arrestin cells, luminescence, 90 min; 100% = 57 uM dopamine signal | 360,000 compounds, 0.23% hits; active = potentiation of 50% or more; inconclusive = 30% to 50%; inactive = 30% or less;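 also: tested on top of an EC20 dose of dopamine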
Target sequence (P14416 whole entry, looked up): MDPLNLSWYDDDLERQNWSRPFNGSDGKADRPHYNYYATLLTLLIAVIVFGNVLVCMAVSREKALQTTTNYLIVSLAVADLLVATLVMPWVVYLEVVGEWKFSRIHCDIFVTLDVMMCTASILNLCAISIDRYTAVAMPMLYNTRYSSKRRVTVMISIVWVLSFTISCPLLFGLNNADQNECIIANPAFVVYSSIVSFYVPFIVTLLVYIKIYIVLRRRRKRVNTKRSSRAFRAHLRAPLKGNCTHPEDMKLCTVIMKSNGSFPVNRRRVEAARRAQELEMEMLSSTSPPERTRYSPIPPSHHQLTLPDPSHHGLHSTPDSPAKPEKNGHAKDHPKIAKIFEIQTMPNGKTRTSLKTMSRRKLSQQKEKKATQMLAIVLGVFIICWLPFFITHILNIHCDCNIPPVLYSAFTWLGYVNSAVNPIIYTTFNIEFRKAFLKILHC
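PathHunter D2 cells, attached overnight at 37 deg C, received compound in DMSO plus dopamine at EC20 (50 nM final) for 90 min at 37 deg C. Beta-arrestin recruitment was read as luminescence after 1 h with detection reagent at ambient temperature.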
Sfp PPTase inh = inhibitors of Bacillus subtilis Sfp phosphopantetheinyl transferase; 310,000 compounds, 3.5% hits; Biochemical Sfp PPTase activity, qHTS; Potency, µM, without a hit: max response, negative = inhibition, hits mostly inhibitors; AID 1490; active = well fitted inhibition curve with a large enough effect; inconclusive = small, poorly fitted or top-dose-only effect, or another doubt; inactive = no such curve, though single readings can be large or run the other way;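 also: the enzyme is Sfp with the accession as filed and its product quenches rhodamine fluorescence; potency is read from the fitted curve at half-maximal effect; 0% = enzyme reaction without inhibitor and -100% = no enzyme wells; top concentration of the series not given in the record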
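Fluorescence-quenching assay: 15 nM Sfp-PPTase preincubated 15 min at room temperature with compound, then 5 uM rhodamine-CoA and 12.5 uM BHQ-2-labelled YbbR peptide added. Fluorescence (ex 525/em 598 nm) read at start and after 30 min; difference gives rate.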
Menin-MLL FL inh = menin-MLL binding inhibition, fluorescein peptide. AID 1766. Fluorescence polarization, fluorescein-MLL peptide displacement from menin. 290,000 tested, under 10 active. FP activity change, % at 61.4 µM; inconclusive = falling polarisation curve, or a change in total fluorescence; inactive = total fluorescence flat and polarisation flat or rising; no compound was filed as active; the % refers to the polarisation; negative = inhibition;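 also: % of control where 0% means no effect; inhibitors lower the polarisation; unlabelled MLL peptide was the positive control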
gsp agonist = activates gsp, the McCune-Albright syndrome mutation; 340,000 compounds, 0.13% hits; Potency, µM (top dose mostly 76.9 µM), for the others: top-dose activation (cAMP increase), most hits filed as activators; gsp mutant cells, cAMP HTRF, 30 min; control for the full effect not named in the record; AID 624287; active = well fitted activation curve with a large enough effect; inconclusive = small, poorly fitted or top-dose-only effect, or another doubt; inactive = no such curve, though single readings can be large or run the other way; cell line not stated here;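 also: phosphodiesterase inhibitor Ro 20-1724 added with compounds to block cAMP breakdown; potency is read from the fitted curve at half-maximal effect; nearly all actives have a fitted effect of over 60% in size; about a fifth of the inactives were tested at one dose only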
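Cells in DMEM/10% FBS with G418 were pretreated with compounds in DMSO plus […] (300 uM stock) for 30 min at 37C. cAMP was measured by HTRF (cAMP-d2 plus anti-cAMP antibody-K) after 30 min at room temperature.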
gsp antag = gsp mutant antagonism; Potency, µM (doses to about 76.9 µM), for inactives: at the top dose activity change, negative = inhibition, most hits filed as inhibitors; gsp-mutant cells, cAMP HTRF, 30 min; control for the full effect not named in the record; 340,000 compounds, 0.4% hits; active = falling curve of any shape with a large fitted effect; inconclusive = falling curve, mostly with a smaller effect; inactive = flat or rising curve; cell line not stated here;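 also: intracellular cAMP measured with PDE inhibitor Ro 20-1724 present during compound exposure; potency is read from the fitted curve at half-maximal effect; % is scaled to controls: 0 for no effect and ±100 for the full control effect; nearly all actives have a fitted effect of over 65% in size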
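Measurement of cellular cAMP by homogeneous time-resolved fluorescence following a 30 min compound exposure at 37C. The PDE inhibitor […] was present throughout; the assay buffer was DPBS with 0.05% BSA and 0.005% Tween 20.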
ClpP mod = qHTS Assay for Activators of ClpP. purified B. subtilis ClpP, FRET peptide cleavage, 20 min. Potency, µM (series often up to 57.5 µM), for the others: top-dose activity change, negative = active. 340,000 compounds, 1.9% hits. AID 651965, 2013; active = well fitted falling curve with a large enough effect; inconclusive = small, poorly fitted or top-dose-only effect; inactive = no such curve, though single readings can be large or run the other way; also: potency is read from the fitted curve at half-maximal effect; the source files actives as falling curves though it sought activators and does not explain the sign; nearly all actives have a fitted effect of over 65% in size; many hits overshoot -100%
Target sequence (P80244 whole entry, looked up): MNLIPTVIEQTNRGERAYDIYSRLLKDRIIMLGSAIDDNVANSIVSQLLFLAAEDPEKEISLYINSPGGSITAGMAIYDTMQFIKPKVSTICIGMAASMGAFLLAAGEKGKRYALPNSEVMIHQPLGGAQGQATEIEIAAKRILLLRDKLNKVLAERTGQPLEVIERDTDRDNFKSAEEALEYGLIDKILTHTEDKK
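ClpP 10 microg/mL final, pH 8 Tris/KCl buffer with BSA, glycerol, Tween-20; compound pinned in; FRET-FV substrate; RT 20 min; Ex320/Em430; ΔFRET vs ADEP 5.8 microM, DMSO, no enzyme.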
Active calls of the source: *; ? = inconclusive; . = no result given; & = joins results of further samples; [ ] = remark or other dose.

The first 11 compounds (preview)
SMILES	TRPV1 potentiator	D2 potentiator	Sfp PPTase inh	Menin-MLL FL inh	gsp agonist	gsp antag	ClpP mod
O=C(Nc1ccccc1O)c1cccc(S(=O)(=O)N2CCOCC2)c1	-18	-5	-17%	3.3	4%[15.4 µM]	7%	.
O=C(COc1coc(CN2CCN(c3ccc(F)cc3)CC2)cc1=O)NC1CCCC1	11	4	.	.	-13%	7%	-0.2%
CC(=O)NCCC1CCN(c2nc3nonc3nc2N(C)Cc2ccccc2)CC1	-9	3	20%	0.4	17%	-24%	2.0%
Cc1ccccc1OCC(=O)NC(C)c1ccccc1 (stereo not given)	-26	-1	1%	-0.7	10%	3%	1.5%
O=C(CCC1CCCCC1)Nc1cccc(C(=O)Nc2ccc(C(=O)O)cc2)c1	.	-1	.	.	2%	1%	.
CSc1cccc(NC(=O)C(C)Sc2ccc(C)cc2)c1 (stereo not given)	8	-26	10%	4.2	32%	-23%	-3.0%
COc1cccc(OCC(O)CN2CCN(C)CC2)c1 (stereo not given)	3	-7	?	-2.3	-21%[15.4 µM]	11%	-2.3%
COc1ccc(S(=O)(=O)Nc2c3ccccc3nc(=O)n2-c2ccccc2)cc1	3	-17	-2%	0.5	-3%	13%	-5.1%
COc1ccc(NC(=O)CSc2n[nH]c(-c3ccncc3)n2)cc1Cl	.	-9	.	.	-26%	-19%	-2.0%
C/C(=N\Nc1ccc2nncn2n1)c1ccc(Cl)s1	-11	-18	-7%	-2.3	14%	2%	-2.3%
COc1ccc(C2CC(=O)Oc3ccc(C(C)(C)C)cc32)cc1 (stereo not given)	13	-4	8%&-2%	7.8	-12%	-4%	-2.6%

Results, from the start:
SMILES	TRPV1 potentiator	D2 potentiator	Sfp PPTase inh	Menin-MLL FL inh	gsp agonist	gsp antag	ClpP mod
O=C(Nc1ccccc1O)c1cccc(S(=O)(=O)N2CCOCC2)c1	-18	-5	-17%	3.3	4%[15.4 µM]	7%	.
O=C(COc1coc(CN2CCN(c3ccc(F)cc3)CC2)cc1=O)NC1CCCC1	11	4	.	.	-13%	7%	-0.2%
CC(=O)NCCC1CCN(c2nc3nonc3nc2N(C)Cc2ccccc2)CC1	-9	3	20%	0.4	17%	-24%	2.0%
Cc1ccccc1OCC(=O)NC(C)c1ccccc1 (stereo not given)	-26	-1	1%	-0.7	10%	3%	1.5%
O=C(CCC1CCCCC1)Nc1cccc(C(=O)Nc2ccc(C(=O)O)cc2)c1	.	-1	.	.	2%	1%	.
CSc1cccc(NC(=O)C(C)Sc2ccc(C)cc2)c1 (stereo not given)	8	-26	10%	4.2	32%	-23%	-3.0%
COc1cccc(OCC(O)CN2CCN(C)CC2)c1 (stereo not given)	3	-7	?	-2.3	-21%[15.4 µM]	11%	-2.3%
COc1ccc(S(=O)(=O)Nc2c3ccccc3nc(=O)n2-c2ccccc2)cc1	3	-17	-2%	0.5	-3%	13%	-5.1%
COc1ccc(NC(=O)CSc2n[nH]c(-c3ccncc3)n2)cc1Cl	.	-9	.	.	-26%	-19%	-2.0%
C/C(=N\Nc1ccc2nncn2n1)c1ccc(Cl)s1	-11	-18	-7%	-2.3	14%	2%	-2.3%
COc1ccc(C2CC(=O)Oc3ccc(C(C)(C)C)cc32)cc1 (stereo not given)	13	-4	8%&-2%	7.8	-12%	-4%	-2.6%
CCOc1nc(-c2ccc(Cl)cc2)nc2ccccc12	-8	-11	0%	10	-11%	-17%	-1.7%
COc1nccc(C(F)(F)F)c1C(=O)Nc1ccc(Cl)cc1	.	-8	27%	3.1	0%[15.4 µM]	-5%	.
COc1ccc(OCc2n(CC(=O)OC3CC(C)CCC3C(C)C)c3ccccc3[n+]2C)cc1 (stereo not given)	-6	-19	35µM*	1.1	4%	2%	2.9%
O=S1(=O)N=C(Oc2ccccc2)c2ccccc21	-7	-2	-7%	-4.0	3%	9%	-2.4%
COc1cccc(NC(=S)N2CCN(S(C)(=O)=O)CC2)c1	1	3	16%	.	17%	8%	-2.2%
O=C(Nc1cccc(S(=O)(=O)Nc2ccccc2F)c1)c1ccco1	.	-11	.	.	23%[15.4 µM]	-3%	-2.2%
N=c1c(C(=O)NC2CCCCC2)cc2c(=O)n3ccccc3nc2n1Cc1ccco1	-19	-8	9%	.	0%	4%	.
Cc1ccc(OCCNc2ccc(C(F)(F)F)cc2[N+](=O)[O-])cc1	-17	-9	14%	2.5	-2%	10%	2.1%
CCOc1ccccc1NC(=O)CCn1ccnc1	5	-4	-10%	3.3	-22%	12%	.
COc1cccc(-c2c(C(=O)N/N=C/c3ccco3)nnn2-c2nonc2N)c1	6	-16	19%	1.2	3%	-4%	-3.0%
CCS(=O)(=O)N1CCN=C1SCc1ccccc1	-12	-5	18%	.	?	16%	0.6%
CC(=O)Nc1nc(-c2ccc3c(c2)OCO3)cs1	-19	0	-6%	-2.6	17%	-7%	2.0%
S=C(NCc1ccccn1)Nc1ccc(Br)cc1Cl	-9	2	-10%	1.3	21%[15.4 µM]	.	.
Nc1c(Cl)cc(Cl)cc1C(=O)OCC(=O)N1CCCC1=O	7	1	.	.	0%[15.4 µM]	8%	.
Cc1ccc(C)c(C(C)NC(=O)C2CCCO2)c1 (stereo not given)	0	3	24%	0.0	-41%[inhibitor]	6%	.
CC(C)(C)CN1CCNC[C@H]1Cc1ccc(O)cc1	-3	-11	.	.	.	10%	-0.2%
CC1CC(OCC(O)CN2CCN(Cc3ccccc3)CC2)CC(C)(C)C1 (stereo not given)	-11	-31	19%	-9.8	-33%[inhibitor]	2%	-0.5%
O=c1nc2c(-c3ccccc3F)n[nH]n2c2ccccc12	.	-2	5%	5.7	0%	18%	28µM*
CCCNC(=O)c1cccc(C(F)(F)F)c1	24	-5	4%	0.6	-44%[inhibitor]	9%	-0.3%
CCOC(=O)Cc1cnc(NC(=O)CSc2nc(C)c(CC)c(=O)[nH]2)s1	2	-2	-9%	-1.0	3%[15.4 µM]	-12%	.
Cc1cccc(OCC(=O)NCC(c2ccco2)N2CCCC2)c1 (stereo not given)	3	-22	.	.	26%[15.4 µM]	-1%	-3.6%
CCN1CCCC1CNC(=O)c1ccc(Sc2ccc(F)cc2)c([N+](=O)[O-])c1 (stereo not given)	-7	-18	-8%	-14	-5%[15.4 µM]	18%	.
CCc1nccn1C(=O)c1cnn2c(C(F)F)cc(-c3ccc(C)cc3)nc12	-2	-21	12%	1.7	4%[15.4 µM]	-6%	27%
CCN(CC)CC(O)Cn1c(-c2cccc(Cl)c2)nc2cc(C)c(C)cc21 (stereo not given)	2	-6	8%	-1.4	-25%	-4%	4.9%
c1ccc2c(C3OCC4(CCCC4)CO3)cccc2c1	.	-8	.	.	3%	.	-4.8%
COc1cc(C(=O)NCCCc2nc3ccccc3n2Cc2cc(C)ccc2C)cc(OC)c1OC	13	-2	-23%	4.2	-3%	-12%	0.3%
COc1ccccc1C(=O)Nc1c2c(nn1-c1cccc(C)c1C)CS(=O)C2 (stereo not given)	11	-3	1%	-1.5	7%[15.4 µM]	0%	0.3%
C=CCSc1nnc(-c2cnn(-c3ccccc3)c2-n2cccc2)n1C	2	-15	-9%	3.1	4%	1%	-1.0%
CC1CCCC(C)N1C(=O)COC(=O)Cn1cnc2c1c(=O)n(C)c(=O)n2C (stereo not given)	7	-9	.	.	41%	5%	-1.8%
O=C(Nc1ncc2c(n1)-c1ccccc1CC2)c1cccc(Cl)c1	.	-18	-10%	1.4	-62%[inhibitor]	15%	?
O=C(Nc1ccon1)Nc1ccc(Cl)cc1Cl	-2	-26	-14%	-1.3	21%	-23%	2.0%
C/C(=N/OCC(=O)NCCCCCCNC(=O)CO/N=C(/C)c1cccs1)c1cccs1	-6	7	0%	-0.3	10%	-17%	-21%
CN(C(=O)CCl)C1CCCc2ccccc21 (stereo not given)	-11	-15	19%	-2.4	-35%[inhibitor]	6%	-2.0%
CCOc1cc(/C=C2\SC(N)=NC2=O)ccc1O	29	-10	?	?	3%	-4%	.
CCc1c(C#N)c(=O)[nH]c(=O)n1-c1ccccc1	.	-7	.	.	26%	-3%	-1.9%
O=C(CSC1=NCCS1)NC1CCCCC1	-3	-18	10%	?	-23%	1%	1.3%
Cc1ccc(C(=O)Nc2ncc(C)s2)s1	-17	-5	2%	-1.8	0%	-1%	.
CCOC(=O)CCc1c(C)c2ccc(OC(C)C(=O)OCC)c(C)c2oc1=O (stereo not given)	18	-11	-7%	-0.8	2%	?	?
O=C1C(=O)N(c2ccccc2)C(c2ccccc2)C1c1ccccc1 (stereo not given)	.	-7	.	.	-4%	-20%	?
CCc1ccc(C(=O)NC(=S)Nc2ccccc2N2CCOCC2)cc1	-10	1	-1%	5.1	10%	-6%	-0.7%
COc1ccc(N(C(=O)c2ccn[nH]2)C(C(=O)NC(C)(C)C)c2ccc(F)cc2)cc1 (stereo not given)	-3	?	0%	-2.2	24%	4%	-0.4%
Cc1ccc(C(=O)CSc2nn3c(=O)c(C(C)(C)C)nnc3s2)cc1	5	-15	0%	11	0%	14%	1.2%
CCCCn1cnc2c(sc3nc4c(cc32)CSC(C)(C)C4)c1=O	-11	-13	1%	3.0	-5%	-15%	-3.0%
COc1ccc(-n2nnnc2SCc2nc(N)nc(N3CCOCC3)n2)cc1	22	-3	10%	-2.3	9%	-3%	-1.4%

Reprinted at random: 2 records from the list.
SMILES	TRPV1 potentiator	D2 potentiator	Sfp PPTase inh	Menin-MLL FL inh	gsp agonist	gsp antag	ClpP mod
CCc1ccc(C(=O)NC(=S)Nc2ccccc2N2CCOCC2)cc1	-10	1	-1%	5.1	10%	-6%	-0.7%
COc1ccc(N(C(=O)c2ccn[nH]2)C(C(=O)NC(C)(C)C)c2ccc(F)cc2)cc1 (stereo not given)	-3	?	0%	-2.2	24%	4%	-0.4%

Compound activity: PubChem, National Center for Advancing Translational Sciences (NCATS)
